miR-21 reporter = miR-21 reporter, rising signal; HeLa miR-21 FLuc reporter, luciferase, 48 h; Potency, µM (doses to about 38.3 µM), without a hit: at the top dose reporter change, positive = more light; 340,000 tested, under 10 active; AID 2288; active = well fitted rising curve with a large enough effect; inconclusive = small, poorly fitted or top-dose-only effect; inactive = no such curve, though single readings can be large or run the other way;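 further: % of control where 0% means no effect; miR-21 action dims this reporter so a rising signal means less miR-21 action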
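Compounds were titrated across several concentrations (up to approximately 40 uM) and incubated 48 hours with HeLa miR-21-FLuc reporter cells (miR-21 target sequence downstream of FLuc, endogenous miR-21). Readout was firefly luciferase luminescence after lytic detection reagent.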
Rango-impB inh = inhibitors of Rango-importin beta complex formation; Q14974; Rango CFP/YFP FRET sensor + importin beta, 45 min; Potency, µM (top dose mostly 92.2 µM), for the others: at the highest dose inhibition of complex formation; 0.031% of 340,000 active; AID 540263; active = rising FRET ratio curve, often small or poorly fitted; inconclusive = mostly compound fluorescence or quenching in the first reads; inactive = flat curves in all reads;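 further: potency means the concentration at half of the fitted maximal effect; 0% = DMSO wells and 100% = buffer wells lacking importin beta; nearly all actives have a fitted effect of over 15% in size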
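Inhibition scored from the CFP 486 nm/YFP 530 nm FRET ratio 45 min after adding 0.125 microM importin beta to 50 nM Rango biosensor preincubated 5 min with compound (room temperature, PBS with DTT, Tween-20, BSA). No-importin wells as positive control.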
Rango release inh = inhibitors of RanGTP-induced Rango-importin beta complex dissociation. Biochemical FRET Rango-importin beta, RanGTP-induced dissociation. Potency, µM (series often up to 46.1 µM), for the others: at the highest dose activity change, negative = inhibition. 0.071% of 340,000 active; active means falling FRET ratio curve, often poorly fitted, with flat reads before Ran was added; inconclusive means other falling curves, or compound fluorescence or quenching; inactive means flat or rising ratio curve;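 further: potency means the concentration at half of the fitted maximal effect; % of control where 0% means no effect; nearly all actives have a fitted effect of over 45% in size; -100% = wells without RanGTP and RCC1; the record marks most hits as doubtful in a second field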
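Two FRET readings bracket the reaction: one 5 min after compound meets Rango–importin beta, another 45 min after RanGTP-RCC1 (0.6 uM Ran, 0.2 uM RCC1, 2 mM GTP) is added. Only the second defines inhibition.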
GLA inh pH 4.5 = blocks human alpha-galactosidase A at pH 4.5 | purified enzyme, 4-MU-alpha-Gal fluorescence, pH 4.5 | activity change, negative = inhibition, % at 105 µM | 230,000 tested, under 10 active | AID 1467; inconclusive = small, poorly fitted or top-dose-only inhibition, or a rising curve; inactive = flat fitted curve, though single readings scatter; no compound was filed as active;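 further: 0% = full activity with enzyme and -100% = basal without enzyme; dose as in the result columns while the protocol names 77 µM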
Target sequence (P06280 whole entry, looked up): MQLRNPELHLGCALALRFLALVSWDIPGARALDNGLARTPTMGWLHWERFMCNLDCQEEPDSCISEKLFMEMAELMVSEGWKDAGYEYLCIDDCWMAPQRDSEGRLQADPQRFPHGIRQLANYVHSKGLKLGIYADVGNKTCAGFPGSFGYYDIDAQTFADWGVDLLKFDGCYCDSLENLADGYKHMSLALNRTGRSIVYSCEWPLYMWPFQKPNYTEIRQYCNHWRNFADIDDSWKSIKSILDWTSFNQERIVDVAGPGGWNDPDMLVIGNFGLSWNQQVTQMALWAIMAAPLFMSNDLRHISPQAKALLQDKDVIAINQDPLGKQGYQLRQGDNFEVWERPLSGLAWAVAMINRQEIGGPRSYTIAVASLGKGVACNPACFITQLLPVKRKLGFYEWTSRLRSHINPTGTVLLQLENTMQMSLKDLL
* = called active by the depositor; u = inconclusive; x = not tested or not shown; & = joins results of further samples.

Sample of the layout:
1. O=c1[nH]c(O)c(N=Nc2ccc(SC(F)F)cc2)c(=O)[nH]1
2. O=C1Nc2ccc(Br)cc2C(c2ccc(Cl)cc2)=NC1O (configuration not stated)

assay / entry,1,2
miR-21 reporter,-36%,-6%
Rango-impB inh,5.1%,2.9%
Rango release inh,16%,-7%
GLA inh pH 4.5,-16,x

This part in full, repeating the preview:
1. O=c1[nH]c(O)c(N=Nc2ccc(SC(F)F)cc2)c(=O)[nH]1
2. O=C1Nc2ccc(Br)cc2C(c2ccc(Cl)cc2)=NC1O (configuration not stated)
3. CN1CCc2c(c(N3CCCCC3)nc3n[nH]c(N)c23)C1
4. O=c1c2ccccc2nc(CNCc2ccco2)n1-c1ccc(F)cc1
5. N#CC(C#N)=Cc1ccc(-c2ccccc2F)o1
6. O=[N+]([O-])c1ccc(NCCO)c2ncccc12
7. c1ccc(-c2cc(-c3ccccc3)[n+](-c3ccccc3)c(-c3ccccc3)c2)cc1
8. CC(C)Oc1cc(-n2c(=S)[nH]c3ccccc3c2=O)c(Cl)cc1Cl

assay / entry,1,2,3,4,5,6,7,8
miR-21 reporter,-36%,-6%,-3%,-14%,-4%,-19%,u,9%
Rango-impB inh,5.1%,2.9%,-2.1%,u,-0.7%,u,0.6%,1.2%
Rango release inh,16%,-7%,u,-16%,-7%,-12%,19%,0%
GLA inh pH 4.5,-16,x,-5,0,5,-19,0,6

9. O=[N+]([O-])c1ccc(N2CCNCC2)cc1NC1CC1
10. COc1cc(OC)cc(C(=O)Nc2ccc(Br)cc2C(=O)c2ccccc2)c1
11. COC(=O)C1=C(c2ccc3ccccc3c2)C[C@@H]2CC[C@H]1N2C(=O)NCCNC(C)=O
12. N#CC(C#N)=NNc1ccc(-n2ccc(C(F)(F)F)n2)cc1
13. CCOP(=O)(OCC)/C(C#N)=C/c1ccc(-c2ccc(F)cc2F)o1
14. CCCC(C)(COC(N)=O)COC(=O)NC(C)C (configuration not stated)
15. COC(=O)C1=C(c2cccc(Cl)c2)C[C@@H]2CC[C@H]1N2C(=O)N1CCCC1
16. O=C(CN1CCCCC1)c1ccccc1Cl

assay / entry,9,10,11,12,13,14,15,16
miR-21 reporter,-17%,-6%,x,u,-10%,6%,x,-4%
Rango-impB inh,x,u,0.7%,-0.2%,u,-1.2%,6.4%,1.2%
Rango release inh,x,-19%,2%,-21%,u,-13%,-5%,-4%
GLA inh pH 4.5,4,0,x,-9,-8,1&2,x,0

17. Cc1ccc(NP(=O)(Oc2ccccc2F)Oc2ccccc2F)cc1
18. CC(=O)OC1(c2ccccc2)CC(C(C)(C)C)CN(C(C)(C)C)C1 (configuration not stated)
19. Clc1cccc(N2CCNCC2)n1
20. O=[N+]([O-])c1cc(F)c(N2CCCCCC2)cc1N1CCNCC1
21. O=c1[nH]c(=S)[nH]c(O)c1N=Nc1cc(S(=O)(=O)Nc2ccc(Cl)cc2)ccc1Cl
22. Cc1ccc(C2N(c3cc(C)on3)C(=O)C3CCCN32)cc1 (configuration not stated)
23. COc1ccc(N2C(=O)/C(=C/c3cc(C)n(-c4ccc(C)cn4)c3C)C(=O)NC2=S)c(OC)c1
24. CCOc1cccc(=NC2CCCCC2)c2c(C)[nH]c(C)c12

assay / entry,17,18,19,20,21,22,23,24
miR-21 reporter,2%,0%,-5%,-2%,x,-2%,-2%,20%
Rango-impB inh,1.9%,0.2%,-1.5%,-2.4%,-0.9%,-0.4%,u,1.1%
Rango release inh,-11%,0%,-5%,-3%,11%,0%,-4%,3%
GLA inh pH 4.5,-18,-18,-10,8,x,1,-5,0

25. O=C(CSc1nnc(NC(=O)c2ccccc2F)s1)NCc1ccc(F)cc1
26. O=C(Oc1ccc2c(c1)CCC2)N1CCOCC1
27. CCC(=O)OC1(c2ccccc2)CCN(C)CC1C (configuration not stated)
28. CC(=O)O[C@H]1CCC2C3CC[C@H]4[C@@H](O)[C@H](O)CC[C@]4(C)C3CC[C@@]21C (some centres not stated)
29. CNC(=O)ON(C(=O)NC)C1N(C)C(=S)SC1(C)C (configuration not stated)
30. O=C(Cn1c(=O)oc2cc(S(=O)(=O)N3CCc4ccccc43)ccc21)NC1CCCC1
31. CC1(C)Cc2c(c(N3CCOCC3)nc3sc4c(NCc5ccccc5)nnnc4c23)CS1
32. CCc1ccc(CN2CCN(Cc3cc(Br)ccc3O)CC2)cc1

assay / entry,25,26,27,28,29,30,31,32
miR-21 reporter,-47%,-38%,-1%,x,-7%,11%,-9%,5%
Rango-impB inh,-1.0%,2.2%,-0.4%,-2.6%,6.4%,2.2%,u,3.3%
Rango release inh,0%,21%,-1%,7%,-4%,38%,11%,11%
GLA inh pH 4.5,x,3,9,x,5,-1,13,-4

33. O=C1C2CCN(CC2)C1Cc1ccccc1O (configuration not stated)
34. COc1ccccc1CCNCc1cccc(C(F)(F)F)c1
35. CC1=CC(=C2C(=O)NC(=S)NC2=O)C=C(C(F)(F)F)N1C
36. N#C/C(=C\c1ccc(O)cc1)C(=O)O (tested in a mixture with another compound)
37. COc1ccc2c(c1OC)C(=O)OC2C1c2cc3c(cc2CCN1C)OCO3 (configuration not stated)
38. CC(C)N1CCN(Cc2cccc3c2OCO3)CC1CCO (configuration not stated)
39. O=C1CN=C(c2ccc(F)cc2)c2oc3ccccc3c2N1
40. Nc1nnc(CCN2CCCCC2)s1

assay / entry,33,34,35,36,37,38,39,40
miR-21 reporter,0%,0%,-8%,x,-3%,0%,-3%,-6%
Rango-impB inh,-0.8%,0.6%,-1.9%,-3.4%,-4.6%,0.2%,-1.0%,2.3%
Rango release inh,-3%,-4%,-10%,1%,24%,-8%,-4%,16%
GLA inh pH 4.5,2,x,-10,x,-3&0&4&0,5,2,-3

Reformatted with two lines to a compound: 4 of the compounds above.
Order of values – miR-21 reporter, Rango-impB inh, Rango release inh, GLA inh pH 4.5
26. O=C(Oc1ccc2c(c1)CCC2)N1CCOCC1
 : -38%, 2.2%, 21%, 3
20. O=[N+]([O-])c1cc(F)c(N2CCCCCC2)cc1N1CCNCC1
 : -2%, -2.4%, -3%, 8
39. O=C1CN=C(c2ccc(F)cc2)c2oc3ccccc3c2N1
 : -3%, -1.0%, -4%, 2
6. O=[N+]([O-])c1ccc(NCCO)c2ncccc12
 : -19%, u, -12%, -19

Next structures follow.
41. CC1CCCC(NC(=O)COC(=O)c2cn(C)c3ccccc23)C1C (configuration not stated)
42. CCOC(=O)c1c(/N=C/c2c(O)n(-c3cccc(C)c3)c(=O)[nH]c2=O)sc2c1CCCC2
43. Cc1ccc(C(O)P(=O)(Oc2ccccc2)Oc2ccccc2)cc1 (configuration not stated)
44. COc1ccc(C(=O)C2CCCN(Cc3ccc(C)s3)C2)c(OC)c1 (configuration not stated)
45. CCCN1CCO[C@@H]2c3cc(O)ccc3OC[C@H]21
46. Cc1ccc(N)c(N)c1
47. O=P(O)(O)COc1ccccc1O
48. O=C1CC=C2C3CC4N(CCC45c4cc(O)c(O)cc4N1C25)CC3=CCBr (configuration not stated)

assay / entry,41,42,43,44,45,46,47,48
miR-21 reporter,x,-4%,x,3%,x,x,-1%,x
Rango-impB inh,-0.7%,u,-0.8%,-6.1%,u,0.2%,4.0%,2.6%
Rango release inh,1%,u,11%,-13%,-5%,30%,-12%,-4%
GLA inh pH 4.5,x,4,x,-14,-12&-8,x,5,x

Just Rango release inh, for two of the compounds above:
item	mol	Rango release inh
42	CCOC(=O)c1c(/N=C/c2c(O)n(-c3cccc(C)c3)c(=O)[nH]c2=O)sc2c1CCCC2	u
43	Cc1ccc(C(O)P(=O)(Oc2ccccc2)Oc2ccccc2)cc1 (configuration not stated)	11%

(further entries)
49. Cc1cc(/C=C2\C(=O)NC(=O)N(c3ccc(Br)cc3)C2=O)c(C)n1-c1cc(C(=O)O)cc(C(=O)O)c1
50. CC(C)N(Cc1nccn1C)C(=O)CCc1nnc(CCCc2ccccc2)o1
51. CCc1nnc(NS(=O)(=O)c2ccc(N=Cc3c(O)n(-c4ccc(Cl)cc4)c(=O)[nH]c3=O)cc2)s1
52. O=C1CC(=O)N(c2ccc3c(c2)OCO3)C(=O)N1
53. CN=C(SCc1ccccc1)c1c(O)n(C)c(=O)n(C)c1=O
54. O=C(CN1CCN(C(=O)COc2cccc(F)c2)CC1)Nc1ccc(Cl)c(C(F)(F)F)c1
55. O=C1NC(=O)C(Cc2ccccc2)C(=O)N1
56. Cc1c(N=Cc2c(O)n(C)c(=O)[nH]c2=O)c(=O)n(-c2ccccc2)n1C

assay / entry,49,50,51,52,53,54,55,56
miR-21 reporter,0%,-56%,0%,2%,-4%,x,x,-7%
Rango-impB inh,u,u,2.0%,1.7%,0.6%,-3.5%,1.7%,2.4%
Rango release inh,-29%,-6%,8%,-13%,0%,4%,-15%,u
GLA inh pH 4.5,x,-6,-6,5,8,x,x,-4

57. Cc1ccnc(NC(=O)CCCc2ccc(N(CCCl)CCCl)cc2)n1
58. Cc1cc(/C=C2\C(=O)NC(=S)N(C)C2=O)c(C)n1C1CCCCC1
59. CC1CN=C(NCCc2ccccc2)S1 (configuration not stated)
60. c1cc2c(cc1N1CCCCC1)C1CC2CCN1 (configuration not stated)
61. Cc1ccc(-n2c(CNCc3ccc(F)cc3)nc3ccccc3c2=O)cc1
62. COc1ccc(CN2CCN(c3ccccc3)CC2)c(C)c1C
63. Cc1c(C=O)c2ccccc2n1Cc1ccc([N+](=O)[O-])cc1
64. CCC(=NCCCn1ccnc1)c1c(O)n(-c2ccccc2)c(=O)[nH]c1=O

assay / entry,57,58,59,60,61,62,63,64
miR-21 reporter,x,-4%,-4%,x,-29%,3%,0%,-9%
Rango-impB inh,3.1%,1.0%,-4.4%,-0.7%,-0.6%,-0.6%,0.1%,-1.5%
Rango release inh,1%,1%,12%,-7%,0%,42%,25%,-1%
GLA inh pH 4.5,x,6,-5,x,x,-6,-2,-3

65. CC(C)c1c(CN(C)C(C)Cc2ccccc2)n(C)n(-c2ccccc2)c1=O (configuration not stated)
66. O=C(NC(=C(Cl)Cl)P(=O)(c1ccccc1)c1ccccc1)c1ccccc1
67. CCCCn1c(O)c(C(C)=NCc2ccco2)c(=O)[nH]c1=O
68. CCOc1ccccc1CN1C2CCC1CC(c1ccc(C)cc1)C2 (configuration not stated)
69. CC1CCCN1CCC(C(N)=O)(c1ccccc1)c1ccccc1 (configuration not stated)
70. CC1CC(C)CC(C)C(O)C(C#N)=CC=CCC(C2CCCC2C(=O)O)OC(=O)CC(O)C(C)C1 (configuration not stated)
71. O=C1CC(c2ccccc2)CN1 (configuration not stated)
72. CCN(CC)CCNC(=O)c1c(O)c2ccccc2n(Cc2ccccc2)c1=O

assay / entry,65,66,67,68,69,70,71,72
miR-21 reporter,x,4%,-2%,20%,x,x,-1%,-2%
Rango-impB inh,-1.4%,-0.5%,0.8%,7.1%,1.1%,-0.1%,3.0%,0.7%
Rango release inh,-5%,0%,1%,-19%,-7%,-14%,27%,9%
GLA inh pH 4.5,x,0,-2,x,x,x,-3,-5

73. CCC(=NCc1ccco1)c1c(O)n(C2CCCCC2)c(=O)[nH]c1=O
74. O=[N+]([O-])c1ccccc1-c1cc(-c2ccccc2)cc(-c2ccccc2)[n+]1Cc1ccccc1Cl
75. Cc1ccc(C2C(S(C)(=O)=O)=C(O)C(=O)N2c2ccccc2)cc1 (configuration not stated) (tested in a mixture with another compound)
76. c1cc2c(cc1NC1=NCCO1)CCCC2

assay / entry,73,74,75,76
miR-21 reporter,-13%,x,0%,x
Rango-impB inh,1.8%,0.0%,-2.8%,2.1%
Rango release inh,1%,u,0%,6%
GLA inh pH 4.5,4,x,0,x

Screening results (PubChem BioAssay)

This is a subset (hit frequency here may not be typical).
